NPYLR7 ag: mosquito NPYLR7 agonism; HEK293T NPYLR7/Galpha15, GCaMP6s calcium fluorescence; activation, % at 10 µM; 270,000 compounds, 0.15% hits; AID 1259423; in the data active means activation above about 40%;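 further: 0% = vehicle and 100% = reference agonist at the receptor; some compounds past the cut are filed as inactive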
NPYLR7 ag max-min: further read-out of NPYLR7 ag, marked with its call; activation, %; measured here: Max-Min RFU normalised activation; some inactives read as strong as hits;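 span of the calcium signal over five minutes; 0% = vehicle and 100% = native peptide agonist; compound fluorescence can raise it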
* marks the source's active call; other numbers are inactive results; & = joins results of further samples. Some of the compounds tested, so the mix of outcomes need not match the whole.

Start of the listing, in advance:
SMILES	NPYLR7 ag	NPYLR7 ag max-min
CCOC(=O)c1cccnc1Oc1cccc(NC(=O)C2CC[C@@H]3CCC[C@H]23)c1 (stereo partly specified)	-13	-22
CC(=O)N1C[C@H](Oc2ccccn2)[C@@H]2C[C@H]1Cc1sc(N)nc12	-1	-5
COc1cccc(Nc2nc(C(N)c3ccccc3)cs2)n1 (stereo unspecified)	-3	-10
OC1CCC(c2nc(CCc3ccccc3)nn2-c2ccccn2)CC1 (stereo unspecified)	-5	-8
O=C(CCN1CCCCCCC1)NCCN1CCNC1=O	0	-8

The list itself, from the first entry:
SMILES	NPYLR7 ag	NPYLR7 ag max-min
CCOC(=O)c1cccnc1Oc1cccc(NC(=O)C2CC[C@@H]3CCC[C@H]23)c1 (stereo partly specified)	-13	-22
CC(=O)N1C[C@H](Oc2ccccn2)[C@@H]2C[C@H]1Cc1sc(N)nc12	-1	-5
COc1cccc(Nc2nc(C(N)c3ccccc3)cs2)n1 (stereo unspecified)	-3	-10
OC1CCC(c2nc(CCc3ccccc3)nn2-c2ccccn2)CC1 (stereo unspecified)	-5	-8
O=C(CCN1CCCCCCC1)NCCN1CCNC1=O	0	-8
CCCCCCCCCCCC(=O)Nc1ccc(N2CCC(C)CC2)c(C(=O)NC2CC2)c1	-4	7
COc1ccc(CCn2c(-c3ccc(OC)c(OC)c3OC)nc3cc(Cl)ccc3c2=O)cc1	5	0
CC(C)NC(=O)CN1CCN(c2cc(Oc3ccc(F)c(F)c3)ncn2)CC1	-16	-9
Cc1ccc(-n2c(SCc3ccccc3)nnc2C(Cc2ccccc2)NC(=O)c2ccc(Cl)c([N+](=O)[O-])c2)cc1 (stereo unspecified)	2	3
CNC(=O)C1CCN(Cn2nc(-c3cccs3)oc2=O)CC1	12	7
C=CCn1c(=O)c2c3c(sc2n2c(Nc4ccccc4)nnc12)CCCC3	-1	5
CCCCCCOCCOCCOC(=O)NCCCn1cccn1	-5	-8
Nc1ccnc(N2CCC(CO)(CCCc3ccccc3)CC2)n1	3	-1
CCc1ccc(OCC(O)Cn2c(=O)c(C#N)cn(CC)c2=O)cc1 (stereo unspecified)	-2	3
CCOc1cn(C)c(C(=O)NCc2ccccc2)cc1=O	-4	-6
Cc1cc(C)c(Cn2ccnc2CNCCN2CCOCC2)c(C)c1	2	16
O=C(NC(C(=O)O)C12CC3CC(CC(C3)C1)C2)c1cccs1 (stereo unspecified)	-2	3
Cc1nc2ccccc2nc1SC(C)C(=O)NCC(C)C (stereo unspecified)	3	2
CN(C)c1cc(Cl)nc(SCc2ccc(C(=O)N3CCC(Cc4ccccc4)CC3)cc2)n1	19	23
COc1ccc(-c2cc(C(=O)N3CCOCC3)c(C)n2-c2ccc(C)cc2)cc1	5	7
CCNC(=O)N(C)c1c(CC)nc2ccc(C(=O)N3CCN(C(C)=O)CC3)cn12	-2	-4
CCc1ncc2c(n1)CN(C(=O)c1coc3c1C(=O)CCC3)C2	-4	-9
CCCSc1ncccc1C(=O)N[C@H](CO)Cc1ccccc1	-3	-5
Cc1cc(C)c(C)c(OS(=O)(=O)c2c[nH]c(C(=O)N3CCCC3)c2)c1	-1	34
O=C(Nc1ncnc2c1CCC2)c1cc2ccccc2o1	6	2
CCCCc1c(C)nc2ccccc2c1SCCC(=O)O	-16	-21
O=[N+]([O-])c1cccc(OCCn2cnc3ccccc32)c1	-6	1
c1ccc(NCCn2cnc(-c3ccccc3)c2C2CCOC2)cc1 (stereo unspecified)	-1	-2
Cc1ccc(-c2cnc(-n3cnnc3)c(C)c2)c(-n2cccn2)c1	1	-1
CCOC(=O)C1(C/C=C/c2ccccc2)CCCN(Cc2cccn2-c2ncccn2)C1 (stereo unspecified)	2	-2
CC(N)=C(C#N)C(=O)COC(=O)C12CC3CC(CC(C3)C1)C2	5	1
CCCCc1nc(C(N)=O)c2[nH]c(=O)n(-c3ccc4c(c3)OCO4)c2n1	4	5
COCCOC(=O)C1=C(C)N(C)C(=S)NC1c1ccc(NC(=O)c2cc(OC)cc(OC)c2)cc1 (stereo unspecified)	17	24
CCN(CCCNC(=O)C1CCN(S(=O)(=O)c2ccc3c(c2)OCCO3)CC1)c1ccccc1	15	10
O=C(O)[C@H]1C[C@@H](C(=O)N2CCCC2)CN(C(=O)Cc2ccc3c(c2)OCO3)C1	-2	-4
O=C1/C(=C/c2ccc(-c3ccc([N+](=O)[O-])cc3)o2)C=C(c2ccccc2)N1c1cccc(Cl)c1	-3	0
O=c1nc(/C=C/c2ccc3c(c2)OCO3)cc(C(F)(F)F)[nH]1	8	0
CCOC(=O)CC1CCCCN1Cc1nnc(-c2ccco2)o1 (stereo unspecified)	1	-1
Cc1ccc(-c2cc(C(F)(F)F)n3ncc(C(=O)Nc4ccc(Cl)c(Cl)c4)c3n2)cc1	1	3
Cc1cc(C)nc(Nc2n[nH]c(-c3cccc4ccccc34)n2)n1	1	0
CCOc1cc(/C=C2/SC(=S)N(CC(=O)O)C2=O)ccc1OCC(=O)O	-5	-11
O=C(Cn1c2ccccc2c2ncn(Cc3ccccc3)c(=O)c21)Nc1ccc2c(c1)OCO2	0	-2
CCN(Cc1noc(CC(C)C)n1)C(=O)Cc1ccc2c(c1)OCO2	-1	-7
Cc1cc(-c2csc(-c3cccc(F)c3)n2)c(C)[nH]1	6	4
Cn1c(CN2CCOc3ccccc32)cc(=O)n(C)c1=O	-3	-3

Individual results from the list.
CCCCCCCCCCCC(=O)Nc1ccc(N2CCC(C)CC2)c(C(=O)NC2CC2)c1 – NPYLR7 ag = -4
O=C(Cn1c2ccccc2c2ncn(Cc3ccccc3)c(=O)c21)Nc1ccc2c(c1)OCO2 – NPYLR7 ag max-min = -2
OC1CCC(c2nc(CCc3ccccc3)nn2-c2ccccn2)CC1 (stereo unspecified) – NPYLR7 ag max-min = -8
Cc1ccc(-c2cc(C(F)(F)F)n3ncc(C(=O)Nc4ccc(Cl)c(Cl)c4)c3n2)cc1 – NPYLR7 ag = 1
CCN(Cc1noc(CC(C)C)n1)C(=O)Cc1ccc2c(c1)OCO2 – NPYLR7 ag max-min = -7
CC(N)=C(C#N)C(=O)COC(=O)C12CC3CC(CC(C3)C1)C2 – NPYLR7 ag max-min = 1
CCc1ncc2c(n1)CN(C(=O)c1coc3c1C(=O)CCC3)C2 – NPYLR7 ag = -4

Next part:
SMILES	NPYLR7 ag	NPYLR7 ag max-min
CCOC(=O)c1cc(-c2ccc(F)cc2)n(C2CCN(C(=O)c3cccc(OC(C)=O)c3C)CC2)n1	31	19
CN1C(=O)/C(=C2\SC(=S)N(CCS(=O)(=O)O)C2=O)c2ccccc21	-10	-16
COc1ccc2oc(=Nc3ccccc3C)c(-c3nc4ccccc4[nH]3)cc2c1	2	11
CCOc1ccc2oc(C)c(C(=O)N3CCC4(CC3)CNC(=O)C4)c2c1	-1	0
CC1CCN(c2ccc(NC(=O)c3ccc4c(c3)OCO4)cc2C(=O)NC(C)c2ccccc2)CC1 (stereo unspecified)	-4	0
CCc1c(C)nc(-c2ccc(C(F)(F)F)cc2)nc1N1CCNCC1	-5	4
CCCCN(CC(=O)N(CCc1c[nH]c2ccccc12)Cc1ccccc1)C(=O)C(C)Cl (stereo unspecified)	1	3
Cn1c(=NC(=O)C2=COCCO2)sc2c(Cl)ccc(Cl)c21	1	59
Cn1cc(-c2ccc(C(=O)N3CCCC(c4ccccc4)CC3)cn2)cn1 (stereo unspecified)	12	4
O=C1NC2(CCN(C(=O)c3cccc(Br)c3)CC2)Nc2cc(Cl)ccc21	6	18
O=c1cc(O)c2sc3nc4c(c(C(F)(F)F)c3c2[nH]1)CCCCC4	3	0
CC(Cc1cnccn1)Nc1nccc(CCC(F)(F)F)n1 (stereo unspecified)	24	14
CC(C)c1cc(C(=O)N(C)Cc2cc(-c3cccs3)n[nH]2)n(C)n1	11	4
COc1c(Cl)cc(NC(=O)C2CC(=O)N(C)C2)cc1Cl (stereo unspecified)	6&3	4&1
CCCCNC(=O)c1ccc(-c2ccc(S(C)(=O)=O)cc2)o1	5	3
CC(=O)N(C)Cc1cc(C2=CCCN(C3C=CCCC3)C2)no1 (stereo unspecified)	5	0
COc1ccccc1Cn1ccn(Cc2cccc(F)c2)c(=O)c1=O	2	-1
CC(=O)Oc1ccccc1C(=O)N1CCC(n2c(=O)oc3c(C)cc(C)cc32)CC1	19	25
Cc1ccc(OCC2c3ccsc3CCN2C(=O)CN(CC2CCCO2)C(=O)c2ccc(F)cc2)c(C)c1 (stereo unspecified)	-2	3
CCc1nc2c(c(=O)[nH]1)C1(CCCCC1)Cc1ccccc1-2	0	-2
COc1ccccc1N=C1N=C(Nc2ccccc2OC)c2ccccc21	0	0
O=C1NC(=O)C2C3C=CC(C3)C12 (stereo unspecified)	-22	-32
CCOc1ccsc1C(=O)N1CCC2(CC1)NCC(=O)N2CC(=O)OC	2	29
CCCSc1ncccc1C(=O)N1CCc2c([nH]c3ccc(OC)cc23)C1c1ccccc1OC (stereo unspecified)	19	5
COc1cc(OC)cc(C2=NC(=Cc3ccc(OC)c(OC)c3OC)C(=O)O2)c1	-3	1
O=S(=O)(c1cccc(Cl)c1)N(Cc1nnc(-c2ccc(Cl)cc2)o1)C1CC1	3	-6
COc1ccnc(N2CCN(C(=O)c3cn(-c4ccccc4)nn3)CC2)n1	1	3
O=C(O)c1cc(-c2cccc3cccnc23)cc(S(=O)(=O)N2CCSCC2)c1	0	-1
Cc1cccc(-n2nc3c(c2NC(=O)Cc2ccc([N+](=O)[O-])cc2)CS(=O)(=O)C3)c1	-4	-6
COc1ccc([C@H]2c3cc(OC)c(OC)cc3C[C@@H](C)[C@@H]2C)cc1OC	2	3
CN(Cc1cc(-c2ccccc2)n[nH]1)C(=O)c1cn(Cc2ccccc2Cl)nn1	6	6
O=C1CN(C(=O)c2cn(CCN3CCOCC3)nn2)CCN1Cc1cccc(F)c1	1	-6
CC(C)c1cc(N2CCNC(C(=O)N3CCCC3)C2)nc(C(F)(F)F)n1 (stereo unspecified)	5	17
CNC(=O)CCN(C)C(=O)CCc1ccncc1	0	-5
COc1cc(Cl)c(C)cc1-n1ccnc1-c1cccnc1	2	-2
COc1ccc(NC(=O)N(Cc2ccc(OC)c(OS(C)(=O)=O)c2)C(C)C)c(OC)c1	-4	-3
O=C1N(Cc2cccnc2)C(=O)C2(CCN(Cc3cc4ccccc4o3)CC2)N1CCc1ccccc1	17	11
C=CCn1c(CN(C)CC2CCCCC2)nnc1SCC1CCCO1 (stereo unspecified)	18	12
CC1(C)CC(=O)C2=C(C1)OC(=N)C(C#N)C2c1cccc([N+](=O)[O-])c1 (stereo unspecified)	-6	-11
COC(=O)c1nnn(-c2ccc(OC)cc2)c1C(=O)OC	-1	4
Cc1cc(SCC(=O)c2cccc([N+](=O)[O-])c2)nc(=O)[nH]1	2	2
OCc1ccc(-c2nccn2-c2ccc3cn[nH]c3c2)o1	1	0
CCCc1nc(C)c(C(=O)N2c3ccccc3NC(=O)C2C)s1 (stereo unspecified)	-4	-6
CCc1nc(SCC(=O)NCc2ccco2)c2oc3ccccc3c2n1	8	19
Cc1cccc(N(C)C(=O)c2cc(S(=O)(=O)N3CCCC3)c(C)o2)c1C	-7	-8

Part of the list above, with each value named:
CCCc1nc(C)c(C(=O)N2c3ccccc3NC(=O)C2C)s1 (stereo unspecified)
  NPYLR7 ag = -4
  NPYLR7 ag max-min = -6
CC1(C)CC(=O)C2=C(C1)OC(=N)C(C#N)C2c1cccc([N+](=O)[O-])c1 (stereo unspecified)
  NPYLR7 ag = -6
  NPYLR7 ag max-min = -11

(cont.)
SMILES	NPYLR7 ag	NPYLR7 ag max-min
Cc1sc2ncnc(Nc3cnn(CC(O)CN(C)C)c3)c2c1C (stereo unspecified)	-1	-2
CCOC(=O)c1nn(-c2ccccc2)c(=O)cc1OS(=O)(=O)c1cc(C)ccc1OC	-3	2
COc1cccc(/C=C/C(=O)NS(=O)(=O)c2ccc(C(N)=O)cc2)c1	13	11
CCCc1cc(C(=O)N(C)Cc2sccc2C)n(C)n1	12	6
CC1C(=O)N(c2cccc(C(F)(F)F)c2)CCN1C(=O)COc1ccc(Cl)cc1 (stereo unspecified)	-2	4
CCOC(=O)Cc1csc(=Nc2ccc(C)cc2C)n1CCO	-10	-16
C/C(=N/N=C(N)SC1CC(=O)N(c2ccccc2)C1=O)c1ccc(O)cc1 (stereo unspecified)	-7	-9
O=C1OC(CNS(=O)(=O)c2ccccc2Cl)CN1c1ccc(Cl)c(Cl)c1 (stereo unspecified)	3	1
Cc1ccc2c(c1)N(Cc1cccc(F)c1)C(=O)C(C)O2 (stereo unspecified)	1	11
COCCN(Cc1cccc(OC)c1OC)CC(O)COc1ccccc1C (stereo unspecified)	-4	7
CCCCn1cc(C(=O)c2cc(C)ccc2O)cc(C#N)c1=O	0	2
Cc1cncc(C(=O)N2CCCC(O)(CN(C)C)CC2)c1 (stereo unspecified)	8	4
O=c1sc2c(n1CN1CCN(Cc3cccc4ccccc34)CC1)CCCC2	12	11
OCCNCCCOc1cccc(Cl)c1Cl	-7	-11
COc1ccc(C2c3sc(=O)[nH]c3SCC2C=NNC(N)=S)cc1 (stereo unspecified)	13	11
O=C(Nc1ccc2[nH]cc(CCN3CCN(c4cccc(C(F)(F)F)c4)CC3)c2c1)C(F)(F)C(F)F	3	-3
CC(=O)NCCNC(=O)C1(C)CCN1Cc1ccc(OC(C)C)cc1 (stereo unspecified)	7	1
O=C(Cc1ccc2c(c1)CCC2)NC1CCN(Cc2ccccc2)C1=O (stereo unspecified)	-1	-1
CCCc1nc2ccc(NC(=O)c3ccc(OC)cc3)cn2n1	-3	-10
CCS(=O)(=O)Oc1cccc(CN(Cc2ccco2)C(=O)Nc2ccccc2C(F)(F)F)c1	5	8
O=S(=O)(c1ccccc1)N1CCN(Cc2nc(-c3ccc(F)cc3)no2)CC1	20	13
COc1ccc(NC(=O)c2ccc(CSc3nnc(-c4ccco4)n3-c3cccc(Cl)c3)cc2)cc1OC	13	13
CC1CCN(C(=O)Cn2cc(SCC(=O)Nc3ccccc3)c3ccccc32)CC1	-5	-8
N=c1sccn1CC(=O)N1N=C(c2ccc3ccccc3c2)CC1c1ccccc1 (stereo unspecified)	-6	-7
CCCCc1nc2cc(C(=O)NC(C)c3cnn(C)c3)ccc2o1 (stereo unspecified)	16	5
COc1ccc2[nH]c3c(c2c1)CCN(C(=O)c1c(F)cc(F)cc1F)C3c1ccc(COC(C)=O)o1 (stereo unspecified)	13	3

Screens as filed in PubChem BioAssay.
